Bioassay records from PubChem BioAssay.
RECQ1 helicase – RECQ1 (human) helicase inhibition; Potency, µM (series often up to 57.3 µM), inactives show top-dose activity, negative = inhibition, usual class: inhibitors; P46063; AID 2549; 240,000 tested, 0.54% active; RECQ1 DNA unwinding, red fluorescence kinetic read;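 note: plate controls were vehicle for no effect and no enzyme for full effect; nearly all actives have a fitted effect of over 30% in size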
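RECQ1T1 50 nM; forked duplex (20 bp + 30-nt ss tails) 200 nM, ATP 2 mM final; pH 8.0, 2 mM MgCl2, 2.5 ug/ml poly(dI-dC); 15 min compound preincubation; discontinuous kinetic read over 2 h at RT.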
Epigenetic reg – regulators of epigenetic silencing causing reporter derepression in mouse cells; AID 1865; murine LDR cells, GFP reporter derepression, 30 h; Potency, µM (top dose mostly 53.9 µM), without a hit: at the top dose GFP activation, actives largely listed as activators; 280,000 tested, 0.2% active; note: % of control where 0% means no effect; nearly all actives have a fitted effect of over 60% in size
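Murine LDR cells bearing a silenced CMV-driven GFP reporter were exposed to compound for 30 h at 37 C. After PBS washes, GFP-positive cells (20-120 um objects) counted by laser-scanning microplate cytometry.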
NPSR antagonist – antagonists of human neuropeptide S receptor cAMP signaling | CHO-NPSR cells, cAMP TR-FRET, antagonist mode | Q6W5P4 | Potency, µM (top dose mostly 38.3 µM), without a hit: at the top dose activity change, negative = inhibition, most hits filed as inhibitors | 220,000 tested, 1% active | AID 1461; note: % is set by controls: 0 for no effect and ±100 for the full control effect; nearly all actives have a fitted effect of over 50% in size; many of its hits are not listed in these tables
Target sequence (Q6W5P4 whole entry, looked up): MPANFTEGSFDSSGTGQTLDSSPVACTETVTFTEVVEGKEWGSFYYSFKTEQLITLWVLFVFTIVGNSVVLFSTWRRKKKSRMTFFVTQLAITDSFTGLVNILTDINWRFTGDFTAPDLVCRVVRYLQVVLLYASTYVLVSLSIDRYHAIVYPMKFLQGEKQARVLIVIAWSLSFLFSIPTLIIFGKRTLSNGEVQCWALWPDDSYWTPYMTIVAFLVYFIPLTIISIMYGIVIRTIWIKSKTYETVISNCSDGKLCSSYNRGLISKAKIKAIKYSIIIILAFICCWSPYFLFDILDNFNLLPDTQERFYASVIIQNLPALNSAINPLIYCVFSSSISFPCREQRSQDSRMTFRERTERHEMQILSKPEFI
SMN2 splice up – SMN2 splice variant enhancement; HEK293 SMN2-luciferase splicing reporter, luminescence, 30-36 h; Potency, µM (top dose mostly 46.1 µM), for the others: at the highest dose activity change, positive = activation, usual class: activators; 210,000 tested, 2.8% active; note: % of control where 0% means no effect; nearly all actives have a fitted effect of over 55% in size
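qHTS luciferase splicing reporter: luminescence rises when SMN2 exon 7 is included in transfected HEK293 cells. Compound exposure lasted 30-36 h at 37C, with 4.5 mM final sodium butyrate as control, followed by a ONE-Glo read.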
IMPase Li cell – IMPase inhibition in cells with lithium potentiation | CHO-M1 cells, IP1 TR-FRET (IP-One), carbachol + lithium | AID 1457 | Potency, µM (titrated, usually from 59.4 µM), without a hit: top-dose activity, negative = IMPase inhibition, hits mostly inhibitors | 210,000 tested, 0.35% active;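 note: IP1 builds up when IMPase is blocked and the TR-FRET signal falls; plate controls were basal vehicle for no effect and high inhibitor control for full effect; nearly all actives have a fitted effect of over 50% in size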
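Readout is a homogeneous TR-FRET IP1 immunoassay (Ex 320, Em 665 and 620), where raised cytosolic IP1 lowers signal. Cells were CHO-M1 treated 30 min at 37C with test compounds plus a little lithium; AC50 values came from Hill-equation fitting.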
Luc counter – blocks Kinase-Glo luciferase, a counter-screen artifact; Q27757; Kinase-Glo luciferase, ATP luminescence, 8 min; 200,000 tested, 0.28% active; Potency, µM (highest dose often 38.3 µM), for the others: at the top dose activity change, negative = inhibition, hits mostly inhibitors; note: % is set by controls: 0 for no effect and ±100 for the full control effect; nearly all actives have a fitted effect of over 60% in size
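Substrate mix (final 50 mM imidazole pH 7.2, 50 mM KCl, 7 mM MgCl2, 10 uM ATP, 0.01% Tween 20, 0.05% BSA) plus pin-tool compound, then Kinase-Glo detection mix; 8 min ambient, luminescence read.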
* hit, by the source's call; i = inactive; ? = inconclusive; nt = no result given; [ ] = another dose, or the depositor's remark. Calls come from the whole dose curve; as a rule, active = well fitted curve in the direction sought with a large enough effect; inconclusive = small, poorly fitted or top-dose-only effect, or another doubt; inactive = no such curve, though single readings can be large; an effect the other way counts as inactive or inconclusive. Potency is the fitted concentration of half-maximal effect. The list is partial; rates above refer to the full screens.

smiles | RECQ1 helicase | Epigenetic reg | NPSR antagonist | SMN2 splice up | IMPase Li cell | Luc counter
Cc1ccc(C2CC(=O)NC3=C2C(=O)CCC3)cc1Br (stereo not drawn) | -2% | 1.1% | -7%[46.1 µM] | -20% | -1%[38.3 µM] | 0%
Cc1ccc(NC(=O)c2ccc(N/N=C/c3cccc(O)c3)c([N+](=O)[O-])c2)cc1 | i | -3.2% | ? | -28% | 15%[38.3 µM] | -1%
NS(=O)(=O)c1cccnc1Nc1cccc(Cl)c1Cl | -2% | -0.7% | -7%[46.1 µM] | 15% | -20%[38.3 µM] | 0%
Nc1ccc(C(=O)Oc2ccc([N+](=O)[O-])cc2)cc1 | 5% | 7.5% | -10% | nt | nt | nt
Cc1cccc(COCC(Cc2ccccc2)N2CCN(C(=O)c3ccc(Cl)c(Cl)c3)CCC2=O)c1 (stereo not drawn) | -17% | -0.3% | -38% | -60%[inhibitor] | 15% | 0%
COC(=O)c1ccc(C2NC(=S)N(c3ccccc3)C(C)=C2C(=O)Nc2ccccc2OC)cc1 (stereo not drawn) | i | -0.4% | -28%[46.1 µM] | -9% | 25%[38.3 µM] | -1%
Cc1ccc(O)c(NC(=S)NC(=O)c2ccccc2Cl)c1 | -22% | -1.2% | -21% | ? | 9% | 1%
Cc1ccc(-c2nn(-c3ccccc3)c3[nH]c(=O)c(CNCc4ccccc4)cc23)cc1 | 1% | 0.0% | -40% | 12% | -3% | 2%

An excerpt from above in order of the RECQ1 helicase value, descending:
smiles | RECQ1 helicase | Epigenetic reg | NPSR antagonist | SMN2 splice up | IMPase Li cell
Nc1ccc(C(=O)Oc2ccc([N+](=O)[O-])cc2)cc1 | 5% | 7.5% | -10% | nt | nt
NS(=O)(=O)c1cccnc1Nc1cccc(Cl)c1Cl | -2% | -0.7% | -7%[46.1 µM] | 15% | -20%[38.3 µM]
Cc1cccc(COCC(Cc2ccccc2)N2CCN(C(=O)c3ccc(Cl)c(Cl)c3)CCC2=O)c1 (stereo not drawn) | -17% | -0.3% | -38% | -60%[inhibitor] | 15%

(continued)
smiles | RECQ1 helicase | Epigenetic reg | NPSR antagonist | SMN2 splice up | IMPase Li cell | Luc counter
CCOC(=O)c1c(NC2OC(=O)c3c2ccc(OC)c3OC)sc(C(=O)OC(C)(C)C)c1C (stereo not drawn) | -11% | -0.8% | -57% | nt | -1% | 0%
N#Cc1ccc(-c2cccnc2)nc1SCc1ccc(Cl)cc1Cl | -2% | -0.1% | -17%[46.1 µM] | -22% | 8%[38.3 µM] | 0%
CCC(=O)Nc1nc2ccccc2n1CCN(CC)CC | i | 0.0% | 9%[46.1 µM] | 4% | 5%[38.3 µM] | -4%
CN(C)CCNC(=O)CCCNC(=O)Cn1cnc2sc3c(c2c1=O)CCCC3 | -19% | 3.8% | -2%[46.1 µM] | -6% | 13%[38.3 µM] | -2%
C/C(CC(C)C)=N\Oc1nc(C)cc(C)n1 | -16% | 0.0% | 11% | nt | nt | nt
Cc1cc2oc(=O)cc(CN3CCN(S(=O)(=O)c4cccs4)CC3)c2cc1C | ? | -1.3% | -14% | -50%[inhibitor] | 4% | -2%
COc1cc(C(=O)OC2CCCCC2=O)cc(OC)c1C (stereo not drawn) | -12% | 0.6% | -17%[46.1 µM] | -6% | -6%[38.3 µM] | 3%
COc1ccc(/C=C/C(=O)c2cc(F)ccc2OC(=O)c2ccccc2C)cc1OC | -17% | 0.0% | 19% | -39%[inhibitor] | 8% | -1%

Filtered by structure, the compounds so far with a halogen
smiles | RECQ1 helicase | Epigenetic reg | NPSR antagonist | SMN2 splice up | IMPase Li cell | Luc counter
Cc1ccc(C2CC(=O)NC3=C2C(=O)CCC3)cc1Br (stereo not drawn) | -2% | 1.1% | -7%[46.1 µM] | -20% | -1%[38.3 µM] | 0%
NS(=O)(=O)c1cccnc1Nc1cccc(Cl)c1Cl | -2% | -0.7% | -7%[46.1 µM] | 15% | -20%[38.3 µM] | 0%
Cc1cccc(COCC(Cc2ccccc2)N2CCN(C(=O)c3ccc(Cl)c(Cl)c3)CCC2=O)c1 (stereo not drawn) | -17% | -0.3% | -38% | -60%[inhibitor] | 15% | 0%
Cc1ccc(O)c(NC(=S)NC(=O)c2ccccc2Cl)c1 | -22% | -1.2% | -21% | ? | 9% | 1%
N#Cc1ccc(-c2cccnc2)nc1SCc1ccc(Cl)cc1Cl | -2% | -0.1% | -17%[46.1 µM] | -22% | 8%[38.3 µM] | 0%
COc1ccc(/C=C/C(=O)c2cc(F)ccc2OC(=O)c2ccccc2C)cc1OC | -17% | 0.0% | 19% | -39%[inhibitor] | 8% | -1%
